# Screens deposited in PubChem BioAssay by National Center for Advancing Translational Sciences (NCATS).
# HPGD block – inhibitors of human 15-hydroxyprostaglandin dehydrogenase (HPGD). P15428. purified HPGD, NADH fluorescence kinetic, PGE2 substrate. Potency, µM, without a hit: at the top dose activity change, negative = inhibition, hits mostly inhibitors. 4.3% of 150,000 active; active = well fitted inhibition curve with a large enough effect (not every such curve was filed as active); inconclusive = small, poorly fitted or top-dose-only effect, or another doubt; inactive = no such curve, though single readings can be large or run the other way;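 further: top concentration of the series not given in the record; plate controls included wells without enzyme; inactives centre near -10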
# Target sequence (P15428 whole entry, looked up): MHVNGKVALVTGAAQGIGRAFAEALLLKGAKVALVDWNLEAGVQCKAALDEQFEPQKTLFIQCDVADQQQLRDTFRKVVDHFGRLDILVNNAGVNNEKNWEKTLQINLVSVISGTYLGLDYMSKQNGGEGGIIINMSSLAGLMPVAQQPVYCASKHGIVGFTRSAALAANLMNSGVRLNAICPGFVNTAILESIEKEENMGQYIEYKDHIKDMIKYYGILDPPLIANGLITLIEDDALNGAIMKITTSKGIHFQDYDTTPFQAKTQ
#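 20 nM HPGD preincubated 15 min at room temperature with compound in 50 mM Tris-HCl pH 8, 0.01% Tween 20. Started with 1 mM NAD+ and 30 uM prostaglandin E2; NADH fluorescence (360/450 nm) read 5 times over 30-s intervals, last minus first.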
# Active calls of the source: *; ? = inconclusive. On the % scale 0 is the no-effect control and ±100 the full control effect; potency means the concentration at half of the fitted maximal effect.
nr	SMILES	HPGD block
1	Cc1cccc2cc(CN(Cc3ccco3)C(=O)Nc3cccc(C#N)c3)c(Cl)nc12	-15%
2	C=CC#CC[N+]1(CC#Cc2ccccc2)CCOCC1	25µM*
3	CCn1c(SCC(=O)N/N=C/C(C)=C\c2ccco2)nnc1-c1ccccc1	-16%
4	O=S(=O)(c1ccc2ccccc2c1)N(CC(O)COCc1ccco1)c1ccccc1 (configuration not stated)	-5%
5	COc1ccc(NS(=O)(=O)c2ccc(N)c(C(=O)O)c2)cc1	-7%
6	COc1cccc(NC(=O)CCCOc2cc(=O)n(C)c3ccccc23)c1	-14%
7	COC1=C2C[C@H](C)C[C@H](OC)[C@H](O)[C@@H](C)/C=C(/C)[C@H](OC(N)=O)[C@@H](OC)/C=C\C=C(\C)C(=O)NC(=CC1=O)C2=O	-3%
8	CN(CC(=O)N1CC=C(c2ccccc2)CC1)S(=O)(=O)c1cnc[nH]1	-3%
9	O=C(Nc1nc(-c2ccccc2)cs1)C1CCCN(S(=O)(=O)c2cccc([N+](=O)[O-])c2)C1 (configuration not stated)	-11%
10	CC(C(=O)OCn1nnc2ccccc2c1=O)N1C(=O)c2ccccc2C1=O (configuration not stated)	-6%
11	CCn1c(CNC(=O)COc2ccc(C(C)C)cc2)nnc1SCC(=O)Nc1ccccc1	-14%
12	Cn1ncc2c(Nc3cccc(C(=O)O)c3)ncnc21	-18%
13	COc1cccc(N(CC(=O)NC(C)c2ccccc2)S(C)(=O)=O)c1 (configuration not stated)	-4%
14	N#Cc1nc(-c2ccco2)oc1N1CCC(C(N)=O)CC1	?
15	Cc1cc(SCC(=O)NC(=O)NCc2ccco2)nc2c(C)cccc12	-21%
16	COCNc1nc(OCC#N)nc(N(C)C)n1	-12%
17	Cc1cc(C)cc(NC(=S)NCCSc2ccc(Cl)cc2)c1	-2%
18	CC(C)(C)c1ccc(C(=O)Nc2ccc(N3CCOCC3)cc2)cc1	-6%
19	Oc1c(C(Nc2cccc(C(F)(F)F)c2)c2cccnc2)ccc2cccnc12 (configuration not stated)	-9%
20	CCCCCC(=O)Nc1nc(C)c(-c2csc(Nc3ccccc3OC)n2)s1	?
21	Cc1c(NC(=O)CC(O)(C(F)(F)F)C(F)(F)F)c(=O)n(-c2ccccc2)n1C	-4%
22	CCOc1ccccc1/C=C(\NC(=O)c1ccccc1)C(=O)NCCC(=O)O	-8%
23	CN(C(=O)c1ccc(S(=O)(=O)N2CCCC2)cc1)C1CCCCC1	2%
24	CC(=O)Nc1ccc(S(=O)(=O)Nc2cccc(N(C)S(C)(=O)=O)c2)cc1	-12%
25	COC(=O)C(NC(C)=O)(Nc1nc2c(s1)CCCC2)C(F)(F)F (configuration not stated)	?
26	Cc1cc(O)c(C(C)(C)C)cc1Sc1cc(C(C)(C)C)c(O)cc1C	-28%
27	O=C(O)c1ccc(COc2ccc(CO)cc2Cl)cc1	16µM*
28	Cc1ccc(S(=O)(=O)NCCn2c(C)cc3ccccc32)cc1	-4%
29	COc1ccc2c(C)cc(N3CCN(c4ccc(F)cc4)CC3)nc2c1	?
30	COc1ccc(-c2c3c(nc4sc5c(Cl)nc(C)nc5c24)CCC3)cc1	-16%

# Of the compounds above, 2 have a tert-butyl group.
nr	SMILES	HPGD block
18	CC(C)(C)c1ccc(C(=O)Nc2ccc(N3CCOCC3)cc2)cc1	-6%
26	Cc1cc(O)c(C(C)(C)C)cc1Sc1cc(C(C)(C)C)c(O)cc1C	-28%

# (further entries)
nr	SMILES	HPGD block
31	CCC(C)NCCCOc1ccc(Cl)cc1C(C)(C)C (configuration not stated)	-3%
32	Cc1ccc(CN2CCN(/N=C/c3cccs3)CC2)cc1	-8%
33	COC(=O)c1ccc(NC(=O)Nc2ccc(C)cc2)cc1	-17%
34	O=C1NCCCc2nc(Oc3ccccc3)sc21	-3%
35	Cc1ccc2[nH]c3c(c2c1)CN(C(=O)CN(C)CC1OCCO1)CC3	-8%
36	COc1ccc(CCNC(=O)NC23CC4CC(CC(C4)C2)C3)cc1OC	-3%
37	CC(C)C1N=C(c2ccc3c(c2)OCO3)CC(c2ccccc2O)N1 (configuration not stated)	-16%
38	CC(=O)c1cccc(N(C(=O)c2ccccn2)C(C(=O)NC2CCCCC2)c2cccs2)c1 (configuration not stated)	-16%
39	CCNC(=S)N/N=C(\C)c1ccc2c(c1)OCCO2	-4%
40	CN1C[C@@H]2C(c3ccc(C(F)(F)F)cc3)C3(c4ccccc4)CC2(C3)[C@H]1c1ccccc1 (some centres not stated)	-7%
41	Cc1ccc(S(=O)(=O)N2CCCC(C(=O)NCCC3=CCCCC3)C2)cc1 (configuration not stated)	2%
42	CCOC(=O)N/N=C/c1ccccc1F	-23%
43	CCOC(=O)C(=NCCCN(C)C)NNc1ccc(Br)cc1	-5%
44	COC(=O)c1cc(NC(=O)c2ccc(-c3ccccc3)cc2)ccc1Cl	-13%
45	O=C(NCCc1ccccc1)c1noc2c1CCc1ccccc1-2	6%
46	O=C(c1ccccc1)N1CCN(c2ccc(NCc3ccc4c(c3)OCO4)cc2)CC1	-18%
47	CC(C)NC(=O)NC(=O)CSc1nnc(COc2ccccc2F)n1C(C)C1CC2CCC1C2 (configuration not stated)	-10%
48	CC1CCC2(CC1)SCC(=O)N2c1ccccc1 (configuration not stated)	4%
49	O=c1oc2ccccc2n1Cn1c(=O)oc2ccccc21	?
50	Cc1ccccc1C(O)c1ccncc1 (configuration not stated)	-7%
51	Cc1ccc(C)c(Cn2c(=O)n(CCCC(=O)NCc3ccco3)c(=O)c3ccccc32)c1	-14%
52	CCOc1ccc(Cn2ccnc2CCl)cc1[N+](=O)[O-]	-12%
53	COc1ccc(N(CC(=O)NN=C2CCCCCCC2)S(=O)(=O)c2ccccc2)cc1	-3%
54	O=C1NC(c2ccccc2)C(C(=O)c2cccs2)=C1O (configuration not stated)	-3%
55	Cc1cc(C)c2[nH]c(=O)c(CN(C(=O)C3CCCO3)C3CCCC3)cc2c1 (configuration not stated)	-5%
56	CCOc1cc(CNCC2CCCO2)cc(Br)c1OCC(N)=O (configuration not stated)	-8%
57	COc1ccccc1NC(=S)N(Cc1ccco1)Cc1cc2cccc(C)c2[nH]c1=O	-9%
58	Cc1ccccc1-c1nnc(SCc2ccc(F)cc2)o1	?
59	Cc1ccc(C(=O)Nc2onc(C)c2C#N)cc1	-4%
60	Cc1noc(NS(=O)(=O)c2ccc(NC(=O)CSc3nc4c(cc3C#N)CCCC4)cc2)c1C	28µM*

# Ordered by molecular weight (low to high): 5 of the compounds above
nr	SMILES	HPGD block
35	Cc1ccc2[nH]c3c(c2c1)CN(C(=O)CN(C)CC1OCCO1)CC3	-8%
22	CCOc1ccccc1/C=C(\NC(=O)c1ccccc1)C(=O)NCCC(=O)O	-8%
41	Cc1ccc(S(=O)(=O)N2CCCC(C(=O)NCCC3=CCCCC3)C2)cc1 (configuration not stated)	2%
21	Cc1c(NC(=O)CC(O)(C(F)(F)F)C(F)(F)F)c(=O)n(-c2ccccc2)n1C	-4%
20	CCCCCC(=O)Nc1nc(C)c(-c2csc(Nc3ccccc3OC)n2)s1	?

# Some values from the entries so far.
# Entry for compound 47 under HPGD block: -10%
# Entry for compound 53 under HPGD block: -3%
# Entry for compound 60 under HPGD block: 28µM*
# Entry for compound 33 under HPGD block: -17%

# Continued:
nr	SMILES	HPGD block
61	COc1ccc(Oc2nc3ccccc3n(C)c2=O)cc1	-9%
62	O=C(NCc1cn(-c2ccccc2)nc1-c1ccccc1)c1cccc([N+](=O)[O-])c1	-14%
63	CC1(C)C(=O)C2(CCCCC2)C(=O)OC1c1cccc([N+](=O)[O-])c1 (configuration not stated)	-8%
64	OCCCc1nc2n(n1)C(c1ccccc1)C=C(c1ccccc1)N2 (configuration not stated)	?
65	CCc1ccccc1NC(=O)CN(C)S(=O)(=O)c1ccc2c(c1)c(=O)n(C)c(=O)n2C	-12%
66	CCc1nnc(NC(=O)CSc2nnc3c(C)cc4c(C)ccc(C)c4n23)s1	-9%
67	CCC(C)NC(=O)CC(c1ccc(OC)cc1)n1cccc1 (configuration not stated)	-20%
68	CCCCC(=O)NS(=O)(=O)c1ccc(N=NN2CCOCC2)cc1	-5%
69	CC(=O)Nc1ccc(SC(C)C(=O)NC(N)=O)cc1 (configuration not stated)	-7%
70	CC(C)(C)C(=O)C[n+]1ccc(C(N)=O)cc1	-2%
71	COc1cccc(OCC(=O)NNC(=O)C(=O)N2CCCC2)c1	0%
72	O=c1[nH]ccc2c(S(=O)(=O)N3CCCNCC3)cccc12	?
73	COc1ccc(CCNC(=O)Cc2ccc(OCc3ccccc3)c(OC)c2[N+](=O)[O-])cc1OCc1ccccc1	-18%
74	CCC(Sc1ccc(C(=O)O)cc1)C(=O)O (configuration not stated)	-7%
75	CC(C)(C)C(=O)c1cnc(Nc2ccccc2)s1	?
76	O=C(NNC(=S)NC(=O)c1ccccc1[N+](=O)[O-])c1ccccc1	-2%
77	C1=C(c2ccccc2)N2CCN=C2S1	-5%
78	COc1ccc(OC)c(C(=O)c2ccc(C(=O)Nc3cccc4ccccc34)cc2)c1	-7%
79	COc1ccccc1-n1cnnc1SC(C)C(=O)Nc1cccc([N+](=O)[O-])c1 (configuration not stated)	-6%
80	CC1=C(C(=O)Nc2cccnc2)C(c2ccc3c(c2)OCO3)C2=C(CCCC2=O)N1 (configuration not stated)	?
81	CCC(CC)C(=O)NCCc1ccc(S(N)(=O)=O)cc1	-3%
82	Cc1nnc(NC(=O)CSc2nnc(CNC(=O)c3ccccc3)n2-c2ccccc2)s1	-10%
83	c1ccc(C2CNCc3c2ccc2ccccc32)cc1 (configuration not stated)	-14%
84	Cc1cccc(OCC(=O)NC(=S)Nc2ccc(S(=O)(=O)NC3CCCCC3)cc2)c1	?
85	Cc1ccc(-c2oc3ncnc(N)c3c2-c2ccc(C)cc2)cc1	?
86	COc1ccc(NC(=O)C(NC(=O)c2ccc(=O)[nH]c2)c2ccc(C)cc2)cc1 (configuration not stated)	-14%
87	CCC(C)OC(=O)n1ccc(C(=O)Nc2nccs2)n1 (configuration not stated)	-3%
88	COC(=O)N1CCC2(CCCN(c3ccccn3)C2)CC1	?
89	CCCCS(=O)(=O)N1C2=NC(C(=O)OC)=C(C(=O)OC)[C@@H]3N(Cc4ccccc4)c4ccccc4[C@]23C[C@H]1C(=O)OC	-6%
90	COc1ccc(OC)c(S(=O)(=O)N(C)CC(=O)Nc2ccc3c(c2)OCO3)c1	0%

# (next part)
nr	SMILES	HPGD block
91	CN(C)CC(C)(C)NS(=O)(=O)c1ccc(Cl)cc1	-18%
92	CC(C)CNC(=O)c1ccccc1Oc1ccccc1	0%
93	COc1cc(OC)cc(C(=O)NCCCN2CCN(CCCNC(=O)c3cc(OC)cc(OC)c3)CC2)c1	-2%
94	O=C(CSc1ncn[nH]1)N1CCN(S(=O)(=O)c2ccc(Cl)cc2)CC1	-14%
95	CCOc1ccccc1/C=C(/NC(=O)c1ccccc1)C(=O)NC(C)c1ccccc1 (configuration not stated)	-6%
96	COc1ccc(C(C)(C)C)cc1NC(=O)CNc1cccc2ccccc12	?
97	Cc1cc(C)c(NC(=O)c2ccc(CN3CCc4ccccc4C3)cc2)c(C)c1	0%
98	Cc1cccc2c(CC(=O)O)noc12	-12%
99	N#Cc1ccc(CS(=O)(=O)c2nnnn2C2CCCCC2)cc1	-2%
100	CCCCCCn1c(SCCCC)nc2c1c(=O)[nH]c(=O)n2C	-11%
101	COC(=O)CSCc1nc2ccccc2[nH]c1=O	-21%
102	c1ccc(CCc2nc(-c3cccnc3)no2)cc1	-2%
103	COc1ccc(C(=O)c2sc3nc(-c4ccc(OC)cc4)ccc3c2N)cc1	-11%
104	Nc1nc2ccc(S(=O)(=O)N3CCCCC3)cc2s1	14µM*
105	O=C(C(Cc1ccccc1)n1cccc1)N1CCCCC1 (configuration not stated)	13µM*
106	Cc1ccc(/C(N)=N/OC(=O)Oc2ccccc2)cc1	-3%
107	CC(NC(=O)CN(C)Cc1nc2ccccc2c(=O)[nH]1)c1ccccc1 (configuration not stated)	-11%
108	CSc1nc(C)cc(SCC(=O)N/N=C/c2ccccc2)n1	-11%
109	C=CCNc1nc(-c2ccc(Cl)cc2)cs1	-16%
110	Cc1nc2ncnn2c(C)c1CCC(=O)N1CCc2ccccc21	-4%
111	CCCCSc1nc(CCC)cc(=O)[nH]1	-11%
112	CCOC(=O)C(NC(=O)CC(C)C)(Nc1sc2c(c1C(N)=O)CCCC2)C(F)(F)F (configuration not stated)	-5%
113	COc1cccc(-c2oc3ccccc3c(=O)c2O)c1	?
114	CC(=O)Nc1ccc(S(=O)(=O)N2CCN(c3ccccn3)CC2)cc1	-1%
115	C=C(c1ccc(OCCO)cc1)c1ccc(OCCO)cc1	-5%
116	Cc1cccc(NC(=O)N(Cc2nc3ccccc3c(=O)[nH]2)C2CCCC2)c1	-13%
117	CC1=NN(Cc2ccccc2)C(=O)C1C(c1ccccc1)C(C#N)C#N (configuration not stated)	32µM*
118	Cc1ccc(C)c2nc(N3CCCC3)c(C#N)cc12	-9%
119	CC1=CCP(=O)(c2ccccc2)C1 (configuration not stated)	?
120	O=C(CNC(=O)c1ccc(Cl)cc1Cl)NCC(=O)Nc1ccccc1N1CCOCC1	3%

# Remaining list, next part.
nr	SMILES	HPGD block
121	CCOC(=O)N1CCN(C(=O)CSCC(=O)N=c2sc3ccccc3n2C)CC1	-9%
122	COc1ccc2nc(NC(=O)c3cc(S(=O)(=O)N4CCOCC4)ccc3C)sc2c1	?
123	O=C(NC(=S)Nc1ccccc1N1CCOCC1)c1ccco1	-1%
124	CC1(C)CC(=O)C(C=NCCc2ccccn2)=C(O)C1	3%
125	CCCCOC(=O)C1C2C=C[C@]3(CN(C(C)c4ccc(OC)cc4)C(=O)[C@H]13)O2 (some centres not stated)	-1%
126	O=S(=O)(c1ccccc1)N1CCC2(CCCN(c3cccc(-c4ccccc4)c3)C2)CC1	-5%
127	Cc1ccc(CNC(=O)C2=CCN(S(=O)(=O)c3ccc(C)cc3)CC2)cc1	?
128	CC1CCC(C(C)C)C(OC(=O)COC(=O)c2cc(O)ccc2N)C1 (configuration not stated)	?

# Some of the compounds tested. The share of hits here may be higher or lower than overall.
